Assay outcomes (PubChem BioAssay)
RanGTP-Imp inh = inhibitors of RanGTP-importin-beta interaction, primary screen, biochemical, FRET, CFP-Ran, YFP-importin-beta, homogeneous | cell-free CFP-Ran/YFP-importin-beta FRET ratio | actives 1.1% (n = 300,000) | Ran GTPase (GTP-bound) - importin-beta complex | inhibition, % (test concentration not listed);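 active = most replicates above 15%; inconclusive = exactly half above 15%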;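 also: 0% = DMSO wells and 100% = Ran loaded with GDP instead of GTP; wells of about 40 µL received 100 nL stock; the first replicate is given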
HNF4A DNA FP = change in binding of human HNF4A to DNA, primary screen, biochemical, fluorescence polarization, FITC-DNA. AID 1224865, 2016. actives 0.3% (n = 360,000). activity change, % at 10 µM. 1 h; in the data active = activity change above about 30%, passing the limit was not always enough;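 also: controls were the assay level and a saturating level of protein; the project sought stronger binding though the title names inhibitors; some compounds called inactive have numbers as strong as hits; positive values seem to mean higher polarization but the record does not say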
Target sequence (P41235 whole entry, looked up): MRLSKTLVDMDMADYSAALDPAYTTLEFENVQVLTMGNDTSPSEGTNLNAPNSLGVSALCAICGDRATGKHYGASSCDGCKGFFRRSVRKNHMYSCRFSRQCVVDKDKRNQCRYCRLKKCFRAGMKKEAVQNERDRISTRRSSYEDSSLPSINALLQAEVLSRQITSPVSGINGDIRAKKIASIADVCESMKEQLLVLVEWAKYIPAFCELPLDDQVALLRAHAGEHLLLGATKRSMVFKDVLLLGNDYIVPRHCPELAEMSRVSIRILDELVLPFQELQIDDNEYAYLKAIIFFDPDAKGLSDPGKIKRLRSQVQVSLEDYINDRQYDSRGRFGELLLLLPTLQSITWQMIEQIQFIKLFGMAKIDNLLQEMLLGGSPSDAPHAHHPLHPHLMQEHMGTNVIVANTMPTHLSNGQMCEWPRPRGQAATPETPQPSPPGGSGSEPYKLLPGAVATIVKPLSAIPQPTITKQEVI
Vif TR-FRET = inhibitors of Vif binding to APOBEC3G peptide, primary screen, biochemical, TR-FRET, GST-Vif 1-94, biotin-A3G peptide, dose response retest (AID 1117319); Virion infectivity factor (Human immunodeficiency virus type 1 group M subtype B (isolate …; TR-FRET GST-Vif / biotin-A3G peptide binding; higher % means a stronger effect; test concentration not given here; strong numbers were not always called active; inhibition, %; hits with a dose series show IC50 in µM; actives 0.57% (n = 260,000);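 active = above the screen mean plus three standard deviations and confirmed in dose response; inconclusive = results disagree or hit not tested in dose response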;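 also: Vif residues 1-94 fused to GST binding biotinylated APOBEC3G peptide 110-148; 0% = full assay without inhibitor and 100% = GST in place of GST-Vif; retest series ran down from 100 µM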
FGF22 binding = binders of human FGF22 protein, primary screen, FGF22 synaptogenesis inhibitor project, biophysical, thermal shift, single point | Fibroblast growth factor 22 (Homo sapiens), Q9HCT0 | recombinant FGF22 thermal shift, SYPRO orange fluorescence; percent of sucrose octasulfate shift, DMSO zero | calls only at 9.99 µM | actives 1.5% (n = 340,000) | AID 651658, 2012;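 active = melting point raised past a set limit in the mean and every replicate; inconclusive = no clear call; three in four hits are not shown here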
Target sequence (Q9HCT0 whole entry, looked up): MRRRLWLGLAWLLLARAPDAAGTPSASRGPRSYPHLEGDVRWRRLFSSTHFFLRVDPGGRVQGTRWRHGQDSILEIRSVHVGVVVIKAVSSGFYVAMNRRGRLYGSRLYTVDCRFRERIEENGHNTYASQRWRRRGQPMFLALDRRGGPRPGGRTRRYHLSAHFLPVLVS
E coli growth = E. coli growth inhibition, primary screen, OD600; Escherichia coli growth, 23 h; active compounds read low; OD600 absorbance (no concentration beside the values); actives 0.21% (n = 330,000);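 active = OD600 absorbance below the run mean of sample wells minus 3.6 SD, in any replicate, cut at about 0.56 in these data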;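 also: stock transfer was 300 nL into about 60 µL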
AF4-AF9 inh = inhibitors of AF4 peptide binding to AF9, primary screen, biochemical, AlphaScreen, biotin-AF4 peptide, FLAG-AF9, single point | AID 651704, 2012 | actives 0.47% (n = 350,000) | Protein AF-9 (Homo sapiens), P42568 | inhibition, % at 10 µM;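 active = every replicate reaching a set inhibition limit, whatever the replicate mean, cut at about 25% in these data; inconclusive = mean inhibition reaches that limit but some replicates miss it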;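 also: 0% = plate neutral control median and 100% = total signal loss; the record names both 10 and 1 µM as test concentration; the first replicate is given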
UCH37 DUB inh = inhibitors of human UCH37 deubiquitinase, primary screen, biochemical, Ub-AMC cleavage, fluorescence | Ubiquitin carboxyl-terminal hydrolase isozyme L5 (Homo sapiens), Q9Y5K5 | purified proteasome/UCH37 | inhibition, % (test concentration not listed) | actives 0.33% (n = 330,000);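 active = mean of two replicates above 20%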;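 also: 0% = compound-free wells with enzyme and 100% = wells lacking proteasome; stock transfer was 100 nL into about 20 µL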
Target sequence (Q9Y5K5 whole entry, looked up): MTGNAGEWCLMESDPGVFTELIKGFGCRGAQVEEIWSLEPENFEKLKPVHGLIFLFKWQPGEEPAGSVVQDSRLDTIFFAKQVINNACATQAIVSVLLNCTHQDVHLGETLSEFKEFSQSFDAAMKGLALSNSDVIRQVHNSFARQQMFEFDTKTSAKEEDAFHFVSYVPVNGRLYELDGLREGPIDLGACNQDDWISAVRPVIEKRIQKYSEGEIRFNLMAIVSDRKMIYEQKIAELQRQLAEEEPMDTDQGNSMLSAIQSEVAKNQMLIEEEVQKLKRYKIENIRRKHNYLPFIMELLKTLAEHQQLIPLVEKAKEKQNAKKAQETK
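Signal – fluorescence, ex 355 nm, em 460 nm · System – Proteasome-bound UCH37 · Input – 0.15 nM proteasome as dispensed · Timing – 30 min preincubation with enzyme, 25 min cleavage at room temperature · Read-out basis – percent inhibition of cleavage signal versus uninhibited and no-proteasome wells · Medium – Tris-HCl pH 7.4 with ATP-MgCl2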
Numbers without * were called inactive; i = inactive; u = inconclusive; x = no result given; + = active, no number; & = joins results of further samples.

SMILES | RanGTP-Imp inh | HNF4A DNA FP | Vif TR-FRET | FGF22 binding | E coli growth | AF4-AF9 inh | UCH37 DUB inh
O=C(c1ccc(C(F)(F)F)cc1)C1CCCN(C(=O)Cn2cnnn2)C1 (stereo unspecified) | 3.8 | 2.2 | 3% | i | 0.64 | -0.5 | 2.5
O=C(COC(=O)c1c(Cl)cccc1Cl)Nc1cccc(S(=O)(=O)NC2=NCCCCC2)c1 | x | -1.2 | 0% | i | 0.67 | -0.4 | -2.1
COc1ccc(-c2nn(-c3ccccc3)cc2C2CC(c3cccs3)=NN2C(=O)CCCC(=O)O)cc1 (stereo unspecified) | 3.2 | -2.5 | 24% | x | 0.7 | x | -0.7
Nc1nonc1/C(=N/O)N1CCN(CCO)CC1 | -0.2 | -1.1 | 10% | x | x | x | x
CC(=O)c1c(C)[nH]c(C(=O)CSc2nc3ccccc3c(=O)n2CCCO)c1C | 1.6 | -0.8 | -3% | i | 0.71 | -1.8 | 2.1
CC(=O)Nc1ccc(NC(=O)c2ccccc2F)cc1 | x | 2.2 | 30% | x | 0.67 | x | 7.1
Cc1c(CCC(=O)O)c(=O)oc2c(C)c(OCc3cc4c(cc3Cl)OCO4)ccc12 | -0.4 | -31 | 0% | i | 0.72 | -6.7 | -2.0
CCC(OC(=O)CC1Sc2ccccc2NC1=O)C(=O)NCC1CCCO1 (stereo unspecified) | u | 2.0 | u | i | 0.69 | 0.1 | -0.1
COc1ccccc1N1C(=O)CC(Sc2nc(C)cc(C)n2)C1=O (stereo unspecified) | 8.8 | 0.2 | 1% | i | 0.65 | -3.9 | 4.2
CCOc1ccc(-c2nnc(N3CCOCC3)c3ccccc23)cc1 | -1.8 | -2.9 | -29% | i | 0.66 | -14 | 5.3
COc1ccc(COC(=O)C2=C(C)NC(=O)NC2c2ccc(OC)cc2)cc1 (stereo unspecified) | -0.8 | 2.6 | x | i | 0.71 | 3.9 | -0.5
COc1cc(/C=C2/C(=N)N3C(=NC2=O)SN=C3S(=O)(=O)C(C)C)ccc1OC(=O)c1ccco1 | 4.4 | 35 | x | + | 0.68 | -1.9 | 9.2
COC(=O)c1ccccc1NC(=O)Cn1cnc2cc(C)c(C)cc21 | -2.6 | 0.8 | 2% | i | 0.66 | -25 | 5.0
Cc1ccc(-c2ccc(CN3C(CC(C)C)C(=O)N(Cc4cn(CCC5OCCO5)nn4)CCS3(=O)=O)cc2)cc1 (stereo unspecified) | x | -0.3 | x | i | x | 3.2 | x
COc1ccc(C(=O)COC(=O)c2ccc3ccccc3n2)cc1 | -2.6 | 0.7 | x | i | 0.68 | -2.2 | 1.3
CC(C)c1ccc(C(=O)NNC(=O)c2n[nH]c(=O)c3ccccc23)cc1 | x | 1.0 | x | i | 0.7 | -50 | -0.1
COc1cc(C(=O)Oc2cc(N)n(S(=O)(=O)c3ccccc3)n2)cc(OC)c1OC | 1.9 | 2.6 | 1% | i | 0.68 | 3.4 | 1.8
CC(C)OC(=O)c1cn(-c2ccccc2)nc1-c1ccc2c(c1)OCCO2 | -0.4 | -2.4 | 3% | x | 0.73 | x | 0.4
COc1ccc(OC)c(N=c2oc3c(OC)cccc3cc2C(=O)NCc2ccco2)c1 | u | -2.7 | 10% | x | 0.72 | x | 6.0
COc1ccc(C)cc1-n1c(SCC(=O)Nc2cc(C)on2)nc2ccccc2c1=O | -1.5 | 1.4 | -3% | i | 0.71 | 2.9 | 1.7
CC(C)c1ccc(/C=C/C(=O)N2CCCCCC2)cc1 | -3.2 | -1.3 | -6% | i | 0.67 | 5.2 | 3.4
Cc1nnn(C23CC4CC(CC(CC(=O)Nc5cccc(F)c5)(C4)C2)C3)n1 | 2.2 | 3.9 | x | i | 0.69 | 0.7 | 4.2
COC(=O)c1cc(COC(=O)c2cccnc2SC)oc1C | 2.4 | -3.1 | u | x | 0.72 | x | 0.1
Cc1ccc(S(=O)(=O)N2CCOCC2)cc1C(=O)OCC(=O)N1CCCC1=O | x | 3.8 | 6% | i | 0.7 | -8.0 | 2.8
CCN(CC(=O)Nc1ccc(OC)cc1)C(=O)CSCc1c(C)noc1C | x | -3.2 | -2% | i | 0.71 | -0.4 | 0.9
COc1cc(-c2nn3c(-c4cccnc4)nnc3s2)cc(OC)c1OC | 9.7 | 4.0 | 4% | x | 0.68 | x | -31
O=C(CN1C2=NCCCN2c2ccccc21)c1ccc2c(c1)OCO2 | 4.3 | -1.0 | 7% | i | 0.69 | 0.0 | -0.2
Cc1nn(Cc2ccc(Cl)cc2Cl)c(Cl)c1/C=C/C(=O)OCC(=O)NCC(F)(F)F | 4.3 | -2.0 | 1% | x | x | x | 1.3
O=C(/C=C/c1ccco1)N1CCN(S(=O)(=O)c2ccc(F)c(F)c2F)CC1 | 1.8 | -3.8 | 18% | i | 0.67 | -0.1 | 1.7
CCOc1ccc(N(CC(=O)NCc2ccccc2OC)S(C)(=O)=O)cc1 | 3.2 | 4.4 | 0% | x | 0.74 | x | -1.2
Cc1cc(NC(=O)CSc2nnc(C3CC3)n2N)no1 | -3.0 | -0.2 | -2% | x | 0.67 | x | 3.6
Cc1nn(CC(=O)Nc2ccc3nc4n(c(=O)c3c2)CCCC4)c(C)c1[N+](=O)[O-] | 4.7 | 1.8 | x | i | 0.71 | 0.8 | 2.9
O=C(NCCNCC(O)COc1ccc(O)cc1)N1CCOCC1 (stereo unspecified) | x | -1.1 | x | i | x | -3.8 | x
COc1cc(CNC2CCCCCC2)cc(OC)c1O | -1.3 | -0.1 | 8% | x | 0.71 | x | -0.4
Cc1cc(C(=O)COC(=O)CCC(=O)c2ccc3c(c2)OCCO3)c(C)n1Cc1ccco1 | -1.0 | 1.6 | -8% | x | 0.74 | x | 0.2
Fc1ccccc1CCNc1c2c(nc3ncnn13)CCCC2 | 0.5 | -1.1 | -2% | i | 0.66 | 8.3 | 1.6
COc1ccc(C(=O)Nc2ccccn2)cc1 | -2.1 | 0.6 | 8% | x | 0.74 | x | 1.8
COc1ccc(C2C3=C(CCCC3=O)Nc3n[nH]c(C)c32)cc1OC (stereo unspecified) | u | 0.4 | -7% | i | 0.68 | -0.1 | -0.6
CSCCC(NC(=O)c1ccccc1)C(=O)N/N=C(\C)c1ccccc1 (stereo unspecified) | -2.1 | 3.1 | -5% | i | x | 1.8 | x
CC(C)C(NC(=O)c1ccc(Br)cc1)C(=O)NC1=NCCS1 (stereo unspecified) | -3.0 | 1.9 | -10% | i | 0.69 | -2.2 | -1.3
CC(C)(C)OC(=O)N1CCCC1C(=O)NCCc1ccccc1 (stereo unspecified) | 4.7 | 4.1 | -1% | x | 0.68 | x | 5.9
O=C(O)c1cc(NCc2ccc(F)cc2)ccc1N1CCOCC1 | -4.5 | -0.2 | 10% | x | 0.71 | x | -3.2
Clc1cc(Cl)cc(Nc2ncn[nH]2)c1 | 2.4 | 2.0 | -1% | x | 0.67 | x | 3.0
O=C1c2ccsc2SCCN1Cc1ccc(F)cc1 | 3.3 | 0.5 | -4% | i | 0.66 | 3.7 | 0.8
CN1CCN(C(=O)C2=C[C@@H](c3csc4ccccc34)C[C@@H](OCCCCO)O2)CC1 | 9.5 | -3.1 | 20% | i | x | -0.3&2.7 | 0.5
CSc1cccc(NCc2ccc([N+](=O)[O-])cc2)c1 | 5.5 | 0.8 | x | i | 0.66 | 13 | -1.1
O=C(CCCOc1ccccc1)N1CCN(c2ccccn2)CC1 | 0.4 | -0.3 | 2% | x | 0.73 | x | -4.1
COc1ccc(C2=NS(=O)(=O)N(C)C(C(=O)N3CCC(C)CC3)=C2)cc1 | u | 3.8 | x | i | 0.78 | 7.6 | 8.4
CC1CN(C=O)CC(C)N1CCN1C(C)CN(C=O)CC1C (stereo unspecified) | x | 1.9 | -9% | i | 0.67 | -1.5 | 0.9
COc1ccc2c(c1)c(C(C)=O)c(C)n2CCc1ccccc1 | u | 2.7 | -3% | i | 0.68 | 1.4 | 0.9
Next part.
SMILES | RanGTP-Imp inh | HNF4A DNA FP | Vif TR-FRET | FGF22 binding | E coli growth | AF4-AF9 inh | UCH37 DUB inh
Cc1ccc(C)c(NC(=O)Cn2nnc(C(=O)Nc3c(C)cccc3C)c2N)c1 | -3.4 | 2.8 | 7% | x | 0.73 | x | 3.6
Fc1ccc(-c2nc3c(Cl)cc(C(F)(F)F)cn3c2Cc2cccc(Cl)c2)cc1 | x | 3.5 | x | i | x | -1.1 | x
COc1ccc(C(O)c2nc(-c3cnc4ccccc4c3)cs2)cc1 (stereo unspecified) | x | -0.7 | x | i | x | 1.0 | x
CCOc1cc(-c2nc(C)c(C(C)=O)n2O)ccc1OCC(=O)Nc1cccc(C)c1 | 0.6 | 1.1 | 9% | i | 0.7 | -5.1 | 6.3
O=C1c2ccccc2[C@@H]2CC(O)C(O)CCN12 (stereo partly specified) | x | 5.8 | -5% | i | 0.69 | -0.3 | -1.1
O=C(Nc1ccc(C(F)(F)F)cn1)Nc1cccs1 | 0.1 | -0.6 | -2% | i | 0.68 | -4.8 | 4.6
COCc1c(C(=O)N/N=C/c2ccncc2)nnn1-c1nonc1N | -1.0 | 0.1 | -8% | i | x | 3.2 | x
Cn1ncc([N+](=O)[O-])c1C(=O)n1nnc2ccccc21 | x | 2.1 | 9% | i | 0.68 | 0.6 | 3.1
C/C(=N\NC(=O)CCc1ccc(S(=O)(=O)N2CCOCC2)cc1)c1ccc(OC(F)F)cc1 | -2.1 | -2.9 | 19% | i | x | 1.0 | x
O=C(c1cccc(C(F)(F)F)c1)c1c[nH]c(C(=O)NCC2CCCO2)c1 (stereo unspecified) | 1.1 | 1.4 | u | i | 0.66 | -0.3 | 0.0
Nc1ccn(-c2ccc(Cl)cc2)c(=O)c1 | 1.8 | -1.7 | 6% | x | 0.72 | x | 0.1
CC(=O)OCCNc1nc(-c2ccccc2)nc2ccccc12 | 3.3 | 1.1 | -4% | i | 0.66 | -3.3 | -1.3
COc1ccc(-c2csc(C(O)c3ccc(F)cc3)n2)cc1 (stereo unspecified) | x | -3.2 | x | i | x | -4.2 | x
O=C1CSC(c2ccccc2F)N1c1cc(Cl)ccc1O (stereo unspecified) | 4.1 | 5.8 | 6% | x | 0.68 | x | 1.1
C=CC[C@@H](CC(=O)N[C@@H](CO)Cc1ccccc1)C(=O)N[C@H](COC(=O)[C@H](CC=C)CC(=O)OC(C)(C)C)Cc1c[nH]c2ccccc12 | x | -4.0 | x | i | x | 6.4 | 2.1
Nc1nc(-c2ccc(NC(=O)c3ccco3)cc2)cs1 | 0.7 | 1.5 | x | x | 0.63 | -1.0 | -1.4
CCC1NC(=O)c2cc3ccccc3cc2-n2c1nc1cc(F)ccc1c2=O (stereo unspecified) | x | -8.0 | 6% | i | x | 5.9 | x

Three compounds picked at random from the list so far, as already listed:
SMILES | RanGTP-Imp inh | HNF4A DNA FP | Vif TR-FRET | FGF22 binding | E coli growth | AF4-AF9 inh | UCH37 DUB inh
CCC1NC(=O)c2cc3ccccc3cc2-n2c1nc1cc(F)ccc1c2=O (stereo unspecified) | x | -8.0 | 6% | i | x | 5.9 | x
C=CC[C@@H](CC(=O)N[C@@H](CO)Cc1ccccc1)C(=O)N[C@H](COC(=O)[C@H](CC=C)CC(=O)OC(C)(C)C)Cc1c[nH]c2ccccc12 | x | -4.0 | x | i | x | 6.4 | 2.1
CC(=O)OCCNc1nc(-c2ccccc2)nc2ccccc12 | 3.3 | 1.1 | -4% | i | 0.66 | -3.3 | -1.3

This is a subset; the hit share may differ from the screen's.
